Yeast UUG start = yeast start codon fidelity modulation; S. cerevisiae UUG-firefly luciferase reporter, luminescence/redox ratio; activity score, % at 18.7 µM; 350,000 tested, 0.13% active;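 active = replicate mean at a twofold rise or more, about +100% in these data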;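 also: firefly luciferase made from a UUG start codon reports start codon fidelity; reporter light over untreated wells divided by growth signal over untreated wells; some hits fall short of that in this replicate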
* marks the source's active call; other numbers are inactive results. The list is partial; the hit share may differ from the screen's.

#	structure	Yeast UUG start
1	CO[C@@H]1CN(C)C(=O)c2cc(NS(C)(=O)=O)ccc2OC[C@@H](C)N(C(=O)C2CCCC2)C[C@H]1C	-7
2	C[C@@H]1CN([C@H](C)CO)C(=O)c2cccc(NS(=O)(=O)c3cccs3)c2O[C@H]1CN(C)S(=O)(=O)c1ccccc1	-4
3	CC(C)NC(=O)N(C)C[C@@H]1Oc2ccc(NC(=O)Cc3ccccc3)cc2C(=O)N([C@@H](C)CO)C[C@@H]1C	0
4	CN(C)CC(=O)N1CCCCN2[C@H](C1)[C@H](c1ccc(/C=C/c3ccccc3)cc1)[C@@H]2CO	0
5	COc1ccc(S(=O)(=O)N(C)C[C@H]2Oc3ccc(NS(=O)(=O)c4ccc(Cl)cc4)cc3C(=O)N([C@@H](C)CO)C[C@H]2C)cc1	-8
6	COc1ccc(S(=O)(=O)N(C)C[C@H]2Oc3c(NC(=O)c4ccncc4)cccc3C(=O)N([C@H](C)CO)C[C@H]2C)cc1	-16
7	C[C@@H]1CN([C@H](C)CO)C(=O)c2cccc(NS(=O)(=O)c3cccs3)c2O[C@@H]1CN(C)C(=O)NC1CCCCC1	-3
8	COc1cccc(-c2ccc([C@@H]3[C@H]4CN(C(=O)NC(C)C)CCCCN4[C@H]3CO)cc2)c1	-7
9	CO[C@@H]1CN(C)C(=O)c2cc(NC(=O)C3CCCC3)ccc2OC[C@@H](C)N(CCC(F)(F)F)C[C@H]1C	9
10	CCCC#Cc1ccc([C@@H]2[C@@H](CO)N3CCCCN(S(=O)(=O)CC)C[C@H]23)cc1	-10
11	C[C@@H]1CN([C@H](C)CO)C(=O)Cc2cc(NC(=O)c3ccncc3)ccc2O[C@H]1CN(C)CC1CCCCC1	-24
12	O=C(C[C@H]1CC[C@@H]2[C@H](COC[C@@H](O)CN2Cc2ccccc2)O1)NCCCN1CCOCC1	-11
13	C[C@H]1CN([C@@H](C)CO)C(=O)c2cccc(NS(=O)(=O)c3ccc(Cl)cc3)c2O[C@H]1CN(C)Cc1ccncc1	-3
14	CO[C@@H]1CN(C)C(=O)c2ccc(NC(=O)Nc3ccccc3Cl)cc2OC[C@@H](C)N(S(=O)(=O)CC(F)(F)F)C[C@H]1C	-13
15	COc1ccc(CN(C)C[C@@H]2Oc3ccc(NC(=O)Cn4cnnn4)cc3CC(=O)N([C@H](C)CO)C[C@H]2C)cc1	8
16	O=C(C[C@@H]1C[C@@H]2c3cc(NS(=O)(=O)c4ccccc4)ccc3O[C@@H]2[C@@H](CO)O1)NC1CCCC1	5
17	COc1cccc(CN2[C@H](CO)[C@@H]3c4ccccc4N(C(=O)CC(F)(F)F)C[C@@H]32)c1	5
18	COc1ccc(NC(=O)N2C[C@H](O)COC[C@@H]3O[C@H](CC(=O)N4CCOCC4)CC[C@H]32)cc1	0
19	COc1ccc(S(=O)(=O)Nc2ccc3c(c2)CC(=O)N([C@@H](C)CO)C[C@H](C)[C@H](CN(C)C)O3)cc1	-12
20	O=C(c1cccc(F)c1)N1CCCCN2[C@H](CO)[C@H](c3ccc(-c4ccccc4)cc3)[C@H]2C1	-5
21	O=C(NC1CCCC1)N1CCCCN2[C@H](CO)[C@H](c3ccc(-c4cncnc4)cc3)[C@H]2C1	-4
22	CCC(=O)N1CC[C@@H]2[C@H](CO)Nc3ccc(C#Cc4cccc(OC)c4)cc3[C@@H]21	-6
23	C[C@@H]1CN([C@H](C)CO)C(=O)Cc2cc(NS(=O)(=O)c3ccccc3)ccc2O[C@@H]1CN(C)Cc1ccc2c(c1)OCO2	-8
24	Cc1cccc(S(=O)(=O)N2CCCCN3[C@H](C2)[C@@H](c2ccc(C#CC(C)C)cc2)[C@@H]3CO)c1	4
25	CN(C)C(=O)c1ccc(-c2ccc3c(c2)[C@@H]2[C@@H](CCN2C(=O)C2CCOCC2)[C@@H](CO)N3C)cc1	2
26	CO[C@@H]1CN(C)C(=O)c2cc(NC(=O)c3ccc(F)cc3)ccc2OC[C@@H](C)N(C(C)=O)C[C@H]1C	9
27	O=C(Nc1ccccc1)N1C[C@@H]2[C@H](c3ccccc31)[C@H](CO)N2C(=O)c1ccccn1	28
28	CC(C)NC(=O)N1[C@H](CO)[C@@H](c2ccccc2)[C@@H]1CN(C)C(=O)c1ccccc1	6
29	COc1ccc(-c2ccc3c(c2)[C@H]2[C@H](CCN2S(=O)(=O)c2ccc(OC)cc2)[C@@H](CO)N3)cc1	-12
30	O=C(C[C@H]1CC[C@@H]2[C@H](COC[C@H](O)CN2S(=O)(=O)c2ccc(F)cc2)O1)NCCN1CCCCC1	-11

Structural class: those above containing two or more sulfur atoms.
#	structure	Yeast UUG start
2	C[C@@H]1CN([C@H](C)CO)C(=O)c2cccc(NS(=O)(=O)c3cccs3)c2O[C@H]1CN(C)S(=O)(=O)c1ccccc1	-4
5	COc1ccc(S(=O)(=O)N(C)C[C@H]2Oc3ccc(NS(=O)(=O)c4ccc(Cl)cc4)cc3C(=O)N([C@@H](C)CO)C[C@H]2C)cc1	-8
7	C[C@@H]1CN([C@H](C)CO)C(=O)c2cccc(NS(=O)(=O)c3cccs3)c2O[C@@H]1CN(C)C(=O)NC1CCCCC1	-3

Remaining list, next part.
#	structure	Yeast UUG start
31	CCC(=O)N1[C@H](CN(CC)C(C)=O)[C@@H](c2ccc(-c3ccccc3)cc2)[C@@H]1CO	3
32	O=C(Cc1ccccc1)N1C[C@@H]2[C@H](c3ccccc31)[C@H](CO)N2C(=O)Nc1ccc(F)cc1	21
33	COc1ccc(S(=O)(=O)N2CC[C@@H]3[C@@H](CO)Nc4ccc(-c5cccc(C#N)c5)cc4[C@@H]32)cc1	-5
34	CCCNC(=O)N1C[C@H]2[C@@H](c3ccccc31)[C@@H](CO)N2C(=O)c1ccccc1	15
35	O=C(Nc1cccc(F)c1)N1CCCCN2[C@@H](CO)[C@H](c3ccc(C#Cc4cccnc4)cc3)[C@@H]2C1	-6
36	CO[C@@H]1CN(C)C(=O)c2cc(NC(=O)C3CCC3)ccc2OC[C@@H](C)N(C(=O)c2ccccc2)C[C@H]1C	-7
37	C[C@@H]1CN([C@@H](C)CO)C(=O)c2cccc(NC(=O)Nc3ccc(C(F)(F)F)cc3)c2O[C@H]1CN(C)Cc1ccc(-c2ccccc2)cc1	-21
38	C[C@H]1CN([C@@H](C)CO)C(=O)Cc2cc(NC(=O)c3ccncc3)ccc2O[C@@H]1CN(C)C(=O)Nc1ccccc1	1
39	CN1CCN(C(=O)C[C@H]2C[C@@H]3c4cc(NC(=O)Nc5ccc(F)cc5)ccc4O[C@@H]3[C@@H](CO)O2)CC1	9
40	CCC(=O)Nc1ccc2c(c1)OC[C@H](C)N(Cc1ccccc1OC)C[C@H](C)[C@H](OC)CN(C)C2=O	15
41	Cc1cccc(S(=O)(=O)N2C[C@H]3[C@@H](c4ccccc42)[C@H](CO)N3Cc2cccnc2)c1	-10
42	C[C@@H]1CN([C@H](C)CO)C(=O)c2cc(NS(=O)(=O)c3cn(C)cn3)ccc2O[C@H]1CN(C)Cc1ccc(C(=O)Nc2ccccc2N)cc1	2
43	COCC(=O)N1CCCCN2[C@H](C1)[C@H](c1ccc(-c3ccc(OC)cc3)cc1)[C@@H]2CO	-5
44	CC(=O)NC[C@@H]1[C@@H](c2ccc(-c3cccc(F)c3)cc2)[C@@H](CO)N1C(C)=O	-8
45	C[C@H]1CN([C@@H](C)CO)C(=O)c2cccc(NC(=O)C3CC3)c2O[C@H]1CN(C)S(=O)(=O)c1ccc(Cl)cc1	-5
46	OC[C@@H]1[C@H](c2ccc(/C=C/c3ccccc3)cc2)[C@H]2CN(Cc3cncnc3)CCCCN12	-5
47	Cc1ccc(S(=O)(=O)N(C)C[C@H]2Oc3ccc(N(C)C)cc3CC(=O)N([C@@H](C)CO)C[C@@H]2C)cc1	13
48	C[C@@H]1CN([C@@H](C)CO)C(=O)c2cccc(NS(=O)(=O)c3ccc(F)cc3)c2O[C@H]1CN(C)Cc1ccc(Cl)c(Cl)c1	13
49	Cc1cccc(S(=O)(=O)N2C[C@H]3[C@@H](c4ccccc42)[C@H](CO)N3CC2CCOCC2)c1	1
50	CO[C@@H]1CN(C)C(=O)c2cc(NC(=O)Nc3cccc(F)c3)ccc2OC[C@@H](C)NC[C@@H]1C	0
51	OC[C@@H]1[C@@H]2c3ccccc3NC[C@@H]2N1Cc1ccccc1Cl	1
52	CCC(=O)Nc1ccc2c(c1)C(=O)N(C)C[C@H](OC)[C@H](C)CN(Cc1cccc(F)c1)[C@@H](C)CO2	7
53	O=C(Nc1ccc(F)cc1)N1CCCCN2[C@H](CO)[C@H](c3ccc(-c4ccncc4)cc3)[C@@H]2C1	-3
54	CCCNC(=O)C[C@@H]1C[C@H]2c3cc(NC(=O)c4ccc5c(c4)OCO5)ccc3O[C@H]2[C@H](CO)O1	1
55	CO[C@H]1CN(C)C(=O)c2cc(NC(C)=O)ccc2OC[C@@H](C)N(C(=O)C2CCOCC2)C[C@@H]1C	-5
56	Cc1ccccc1-c1ccc([C@H]2[C@@H](CO)N3CCCCN(S(C)(=O)=O)C[C@@H]23)cc1	-6
57	C[C@@H]1CN([C@H](C)CO)C(=O)c2cc(NS(=O)(=O)c3ccc(Cl)cc3)ccc2O[C@H]1CN(C)Cc1ccc(C(=O)O)cc1	3
58	COc1ccc(CN2[C@H](CO)[C@@H]3c4ccccc4N(C(=O)Nc4ccc(F)cc4)C[C@@H]32)cc1	18
59	CC(C)NC(=O)N(C)C[C@H]1Oc2ccc(NS(=O)(=O)c3ccc(Cl)cc3)cc2C(=O)N([C@H](C)CO)C[C@@H]1C	-11
60	CO[C@H]1CN(C)C(=O)c2ccc(NC(=O)C3CCC3)cc2OC[C@@H](C)N(C)C[C@@H]1C	-5

#	structure	Yeast UUG start
61	O=C(C1CC1)N1[C@H](CO)[C@@H]2c3ccccc3N(S(=O)(=O)c3ccccc3)C[C@@H]21	30
62	COc1ccc(NC(=O)N(C)C[C@@H]2OCc3ccccc3-c3ccccc3C(=O)N([C@H](C)CO)C[C@@H]2C)c(OC)c1	5
63	CN(C)CC#Cc1ccc([C@@H]2[C@@H](CO)N3CCCCN(C(=O)Nc4ccc(F)cc4)C[C@@H]23)cc1	12
64	C[C@H]1CN([C@@H](C)CO)C(=O)c2cccc(NC(=O)c3cnccn3)c2O[C@H]1CN(C)C(=O)Nc1ccccc1	10
65	C[C@@H]1CN([C@H](C)CO)C(=O)Cc2cc(NC(=O)Cc3cn(C)c4ccccc34)ccc2O[C@H]1CN(C)S(C)(=O)=O	16
66	CS(=O)(=O)N1CCCCN2[C@@H](CO)[C@@H](c3ccc(C4=CCCC4)cc3)[C@@H]2C1	0
67	CCCNC(=O)C[C@@H]1C[C@@H]2c3cc(NS(C)(=O)=O)ccc3O[C@@H]2[C@@H](CO)O1	1
68	COCCN(C[C@@H]1N[C@@H](CO)[C@H]1c1ccc(-c2cccc(F)c2)cc1)C(C)=O	-2
69	CO[C@H]1CN(C)C(=O)c2ccc(NC(=O)C3CCCC3)cc2OC[C@H](C)N(C(C)=O)C[C@@H]1C	14
70	C[C@H](NC(=O)C[C@H]1CC[C@H]2[C@H](COc3ccc(NC(=O)C4CCOCC4)cc3C(=O)N2C)O1)c1ccccc1	5
71	C[C@@H](NC(=O)C[C@@H]1CC[C@@H]2[C@H](COC[C@@H](O)CN2C(=O)Nc2cc(Cl)cc(Cl)c2)O1)c1ccccc1	17
72	CCNC(=O)C[C@H]1CC[C@@H]2[C@H](COC[C@@H](O)CN2Cc2ccc(Cl)c(Cl)c2)O1	-7
73	C[C@H](CO)N1C[C@H](C)[C@@H](CN(C)C(=O)Nc2ccc(F)cc2)Oc2ccc(NS(=O)(=O)c3ccccc3)cc2CC1=O	16
74	C[C@H](CO)N1C[C@H](C)[C@@H](CN(C)S(=O)(=O)c2ccc(F)cc2)Oc2ccc(NC(=O)CCN3CCOCC3)cc2CC1=O	3
75	CC(C)NC(=O)Nc1ccc2c(c1)C(=O)N([C@@H](C)CO)C[C@H](C)[C@@H](CN(C)S(=O)(=O)c1ccc(F)cc1)O2	-11
76	COc1ccc(S(=O)(=O)N(C)C[C@H]2Oc3ccc(NC(=O)Cc4ccccc4)cc3CC(=O)N([C@H](C)CO)C[C@@H]2C)cc1	4
77	O=C(NCC1CC1)[C@@H]1[C@@H](CO)[C@@H]2Cn3c(ccc(-c4cccnc4)c3=O)[C@H]1N2C(=O)C1CCC1	-9
78	CO[C@H]1CN(C)C(=O)c2ccc(NC(=O)c3ccccc3F)cc2OC[C@H](C)N(C(C)=O)C[C@H]1C	-1
79	COc1ccccc1-c1ccc([C@H]2[C@@H](CO)N3CCCCN(Cc4ccncc4)C[C@H]23)cc1	-12
80	O=C(Nc1ccc(F)cc1)N1C[C@@H]2[C@H](c3ccccc31)[C@H](CO)N2C(=O)c1ccncc1	35
81	CC(=O)N1[C@@H]2CN(S(=O)(=O)c3ccc(F)cc3)c3ccccc3[C@@H]2[C@@H]1CO	-5
82	C[C@@H]1CN([C@@H](C)CO)C(=O)c2cc(NS(C)(=O)=O)ccc2O[C@@H]1CN(C)S(=O)(=O)c1ccc(F)cc1	3
83	COCC(=O)Nc1ccc2c(c1)C(=O)N(C)C[C@@H](OC)[C@@H](C)CN(Cc1cccc(F)c1)[C@H](C)CO2	1
84	COc1ccc(NC(=O)N(C)C[C@@H]2Oc3ccc(NS(=O)(=O)c4ccc(F)cc4)cc3C(=O)N([C@@H](C)CO)C[C@H]2C)cc1	2

Fetched one by one from above (three):
#	structure	Yeast UUG start
62	COc1ccc(NC(=O)N(C)C[C@@H]2OCc3ccccc3-c3ccccc3C(=O)N([C@H](C)CO)C[C@@H]2C)c(OC)c1	5
76	COc1ccc(S(=O)(=O)N(C)C[C@H]2Oc3ccc(NC(=O)Cc4ccccc4)cc3CC(=O)N([C@H](C)CO)C[C@@H]2C)cc1	4
75	CC(C)NC(=O)Nc1ccc2c(c1)C(=O)N([C@@H](C)CO)C[C@H](C)[C@@H](CN(C)S(=O)(=O)c1ccc(F)cc1)O2	-11

Filtered by structure: the compounds so far with a thiophene ring, fused or not
#	structure	Yeast UUG start
2	C[C@@H]1CN([C@H](C)CO)C(=O)c2cccc(NS(=O)(=O)c3cccs3)c2O[C@H]1CN(C)S(=O)(=O)c1ccccc1	-4
7	C[C@@H]1CN([C@H](C)CO)C(=O)c2cccc(NS(=O)(=O)c3cccs3)c2O[C@@H]1CN(C)C(=O)NC1CCCCC1	-3

Source: PubChem
